From PubChem BioAssay
Calb biofilm kill: mixture kills Candida albicans biofilm cells; inhibition, % at 7.6 µM; C. albicans biofilm persisters + clotrimazole, fluorescence viability; primary screen in compound mixtures of four per well; actives 0.02% (n = 120,000);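 active means inhibition above 30.3% in the primary screen of four-compound pools, then above 30% when the compound was retested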;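 further: compounds exposed to preformed 24 h biofilms for 48 h; the number belongs to the whole pool; some results filed as inactive read as strong as hits; inactives centre near 12; 0% = biofilm with clotrimazole alone and 100% = kill control; retested singly at about 60 µM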
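System: C. albicans CAF4-2 wild-type biofilms; Medium: RPMI/MOPS medium, pH 7.0; Reagent: Clotrimazole, 50 µg/mL; Times: biofilm formation 24 h, compound exposure 48 h, 37 °C; Detection: 2-h Alamar Blue fluorescence, 535/590 nm excitation/emission; Evaluation: percent inhibition of biofilm viability.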
Numbers without * were called inactive.

molecule,Calb biofilm kill
CCOC(=O)c1cc2c(ccn2C)n1CC(=O)N1C(C)CCCC1C (centres undefined),14
CCC1CCc2c(sc(NC(C)=O)c2C#N)C1 (centres undefined),5
O=[N+]([O-])c1ccc(OCCO)nc1,10
COc1ccc(C)cc1N(CC(=O)Nc1cccnc1)S(=O)(=O)c1ccccc1,-11
CCn1nccc1C(=O)Nc1ccc(Cl)c(Cl)c1,13
CCOC(=O)c1sc(=S)n(C)c1NC(=O)c1ccccc1C,15
O=C(O)C1CCN(C(=O)c2cc(F)cc3c2OCOC3)CC1,14
COc1ccc(OC)c(Cc2nnc(CCC(=O)N3CCC(N4CCCCC4)CC3)o2)c1,8
O=C(NCc1ccc(F)cc1F)c1cc(COc2c(F)cccc2F)on1,21
O=C(NCc1ccccc1F)C1CCCN1C(=O)NC1CCCCC1 (centres undefined),7
COc1cccc(NC(=O)[C@H](C)NC(=O)C2CCN(S(=O)(=O)c3ccc(C)cc3)CC2)c1,0
Cc1cc(NC(=O)C2CCCN2C(=O)Nc2cccc(Cl)c2)ccc1-n1cnnn1 (centres undefined),-17
O=C(O)COc1ccc(/C=N/n2c(COc3ccccc3)nc3ccccc3c2=O)cc1,19
O=[N+]([O-])c1ccc(O)c(/C=N/Nc2nc3ccccc3[nH]2)c1,23
COc1ccc(OC)c(N2Cc3ccccc3C2)c1,8
Cc1cccc(Nc2ncnc(N)c2[N+](=O)[O-])n1,4
C/C(=N\NC(=O)c1ccc(C)cc1C)c1ccc2c(c1)OCO2,12
N#Cc1ccc(-c2csc(NC3=NCCCCC3)n2)cc1,9
Cc1cc(-c2nnc(SCC(=O)Nc3nccs3)o2)no1,13
Cn1c(=O)c2[nH]c(N=Nc3ccc(N)cc3N)nc2n(C)c1=O,-3
CN(c1ccc(OCC(=O)OCC(=O)Nc2ccccc2)cc1)S(=O)(=O)c1ccc(F)cc1,10
CCOC(=O)C1(CCCc2ccccc2)CCN(C(=O)CCN2CCCCC2=O)CC1,29
CC(Cl)C(=O)c1c[nH]c2ccccc12 (centres undefined),8
CC1=CCC2C(=O)N(c3ccc(S(N)(=O)=O)cc3)C(=O)C2C1 (centres undefined),19
COc1ccc(C(=O)NCC(=O)OCC(=O)NC2CCCC2)cc1,10
CC1C(=O)NN=C1C(=O)N/N=C\c1ccc(O)cc1O (centres undefined),28
C=CCNC(=S)N/N=C/c1ccc(C)c([N+](=O)[O-])c1,7
O=C(O)C1CCN(c2ccc([N+](=O)[O-])cc2[N+](=O)[O-])CC1,15
Cc1ccc(/C=C2\SC(=S)N(CCCC(=O)Nc3nccs3)C2=O)cc1,12
COCCn1c(SCC(=O)Nc2sccc2C(N)=O)nnc1-c1ccncc1,7
O=C(CN=C1NS(=O)(=O)c2ccccc21)OCC(=O)c1cc(F)ccc1F,7
CC1(C)COC2(OC1)C(=O)N(CN1CCOCC1)c1ccccc12,16
Cc1ccn2c(NCc3ccccc3)c(-c3cccs3)nc2c1,-29
Cc1cc(C(=O)CCC(=O)N2CCN(c3ccccc3F)CC2)c(C)s1,8
O=C(O)c1ccc(-n2cccn2)c([N+](=O)[O-])c1,15
Cc1ccc(S(=O)(=O)Nc2cccc3ncccc23)cc1,8
COc1cc(OC)c(C2SCCCS2)cc1OC,13
COCCNC(=O)c1ccccc1NC(=O)c1ccccc1N(C)S(C)(=O)=O,9
CC(NCc1cccs1)c1ccccc1 (centres undefined),12
Cc1ccc(/C=C/C(=O)NCc2cccs2)c(C)c1,12
CCCCSCCCNC(=O)Nc1ccc(C)c(C)c1,-2
NC(=O)Cc1c[nH]c2cccc(O)c12,11
C/C(=N\N1CCN(C)CC1)c1ccc(OC(F)F)cc1,5
O=C(CS(=O)(=O)c1cn(Cc2cccc(F)c2)c2ccccc12)N1CCCCC1,10
COc1ccc(/C=N/Nc2ccc([N+](=O)[O-])cc2S(=O)(=O)N2CCN(C)CC2)cc1,18
O=S(=O)(CCc1ccncc1)C1Cc2cccc3cccc1c23 (centres undefined),29
Cc1cc(C)cc(-n2c(C)cc(/C=N/NC(=O)c3ccncc3)c2C)c1,10
O=C(O)Cc1ccc(NC(=O)c2cnccn2)cc1,12
Cc1ccc(C)n1-c1ccc(C(=O)NN)cc1,18
COc1ccc(C(=O)N/C(=C\c2ccco2)C(=O)OCc2ccco2)cc1,27
CC(=O)c1sc(C(=O)O)c(-c2ccco2)c1-c1ccco1,11
NC(=O)CSc1cn(CCNC(=O)c2cccs2)c2ccccc12,7
C=C(C)CNC(=S)Nc1nc2c(cc1C(=O)OCC)CCCC2,18
COc1ccccc1NC(=O)Nc1ccc(Cc2ccncc2)cc1,1
C=CCNC(=O)c1ccccc1NC(=O)c1ccc(Cl)c(S(=O)(=O)Nc2cccc(C)c2C)c1,22
CC(=O)N1CCN(C(=O)CCC(=O)O)CC1,45
CC(=O)Nc1ccc(N2CCCC(C)C2)c([N+](=O)[O-])c1 (centres undefined),28
CC(C)C(OC(=O)CCCC(=O)Nc1nccs1)C(=O)NC1CCCCC1 (centres undefined),26
O=S(=O)(c1ccc(-c2ccon2)s1)N1CCN(c2ccccn2)CC1,19
Nc1ncnc(NCc2ccccc2)c1[N+](=O)[O-],16

Laid out differently: entries from further up
SMILES: Cc1cc(C)cc(-n2c(C)cc(/C=N/NC(=O)c3ccncc3)c2C)c1
  Calb biofilm kill: 10
SMILES: CC(=O)Nc1ccc(N2CCCC(C)C2)c([N+](=O)[O-])c1 (centres undefined)
  Calb biofilm kill: 28
SMILES: NC(=O)CSc1cn(CCNC(=O)c2cccs2)c2ccccc12
  Calb biofilm kill: 7

Continuation.
molecule,Calb biofilm kill
CCOC(=O)c1c(-c2ccc(C)cc2)csc1/N=C(\C)C1=C(O)c2ccccc2C1=O,28
O=C(O)CN1C(=O)C2C3CC(C2C1=O)C1C(c2ccc(Cl)cc2)c2sc(=O)[nH]c2SC31 (centres undefined),-1
Cc1cc(Br)ccc1OCCCCN1CCCCC1,29
C#CCCOC(=O)Nc1ccccc1,4
CC(NS(=O)(=O)c1ccc(Cl)c(Cl)c1)C(=O)OCC(=O)Nc1ccc2c(c1)OCO2 (centres undefined),8
CC(C)CSc1n[nH]c(N)n1,4
COc1cc2oc(=O)c3c(c2cc1OCC(=O)c1c(C)n(C)c2ccccc12)CCCC3,-10
O=C(O)c1cccc(N2C(=S)N=C(Nc3ccccc3)C23CCCCC3)c1,13
CCN(CC)S(=O)(=O)c1ccc(N2CCOCC2)c(NC(=O)c2ccccc2F)c1,7
COC(=O)[C@@]1(Cc2ccc(F)cc2)[C@H]2c3cc(C(=O)N(C)C)n(CCSCCO)c3C[C@H]2CN1C(=O)c1ccccc1,16
Cc1cccc(/C=N/NC(=O)c2cccc([N+](=O)[O-])c2)n1,7
Cc1nc(C)c(C(=O)O)c(-c2cccs2)c1C(=O)O,23
CC(C)N(C)CCOC(=O)c1ccccc1Cl,9
CCc1ccc(NC(=O)c2n[nH]c(=O)c3ccccc23)cc1,12
O=C(Nc1ccc(N2CCOCC2)cc1)C1CCN(S(=O)(=O)c2ccc3c(c2)OCCO3)CC1,4
O=C(CSc1ccc(F)cc1)Nc1ccc(Br)cc1,7
CCC(C)(C)n1nnnc1C(c1ccccc1)N1CCN(C2CCCC2)CC1 (centres undefined),9
CC(/C=C/c1ccc(N(C)C)cc1)=N\N=C(/N)SC1CC(=O)N(c2ccc(C(=O)O)cc2)C1=O (centres undefined),24
CN(C)/C=N/c1nccc(-c2cccs2)n1,6
Cc1cc(C(=O)NNc2ccc(C)c(C)c2)no1,7
CN(Cc1nccn1C)C(=O)CC1C(=O)NCCN1Cc1cccc(Oc2ccccc2)c1 (centres undefined),13
O=C(CNC(=O)c1ccc2c(c1)OCO2)N/N=C(Br)/C=C/c1ccccc1,-2
CCOC(=O)c1c(C)[nH]c(=S)c(C#N)c1-c1ccccc1,9
COc1ccc(/C=N\Nc2ccc([N+](=O)[O-])cc2)c(C(=O)O)c1OC,19
COc1ccccc1NCC(=O)NNC(C)C(=O)Nc1cccc(Cl)c1 (centres undefined),11
CC1(C)CC(=O)C(C(=O)/C=C/c2ccco2)C(=O)C1,18
O=C(Nc1ccc2c(c1)OCCO2)C1CC1c1ccccc1 (centres undefined),13
COc1ccccc1/C=C/C(=O)OCC(=O)NNC(=O)c1ccccc1,14
CCOC(=O)c1oc2ccccc2c1NC(=O)C(C)(C)C,16
Cn1c(=O)c2c(nc(Sc3ncnn3CC(=O)NC(C)(C)C)n2C)n(C)c1=O,2
Cc1ccc(-c2csc3nc(CN(C)Cc4ccccc4)[nH]c(=O)c23)cc1,8
CC(=O)Nc1cccc(OCCCOc2ccc([N+](=O)[O-])cc2)c1,10
CCc1cc(C(=O)c2ccc(OC)cc2)c(NC(=O)CN2CCCC2)s1,12
O=C(O)Cn1cnc2c(=S)nc[nH]c21,-3
CCn1c(SCc2ccc(Cl)cc2)nc2nc3c(cc2c1=O)CCCC3,7
COc1ccc(CC2(CO)CCN(S(=O)(=O)N(C)C)CC2)cc1,13
CC(=O)Oc1ccc2c(c1)cc(C)n2C,16
OC(CNCc1ccccc1)c1ccccc1 (centres undefined),14
COc1ccccc1N1C(=O)C2C(c3ccccc3F)NN(C(=O)c3ccc(C)cc3)C2C1=O (centres undefined),5
O=C(Nc1ccc(C(=O)N2CCOCC2)cc1)c1cc(-c2cccnc2)nc2ccc(Cl)cc12,25
COc1ccccc1NS(=O)(=O)c1cccc(NC(=O)c2sc3ccccc3c2Cl)c1,0
COc1cc(OC)cc(C(=O)NCC(=O)OCC(=O)NC(C)(C)C)c1,11
CCCC(=O)NC(=S)Nc1cccc(NC(=O)c2ccccc2Cl)c1,6
Cc1cc(C)cc(NC(=O)CCN2CCCC2)c1,24
CCCn1c(SCC(=O)N2c3ccccc3Sc3ccccc32)nc2ccccc21,20
O=[N+]([O-])c1cccc(-c2cn3ccccc3n2)c1,17
COc1ccc(N(CC(=O)NCCc2ccc(Cl)cc2)S(=O)(=O)c2c(C)[nH]c(=O)[nH]c2=O)cc1,15
COC(=O)c1ccc(C(=O)NC(=S)Nc2ccc3nc(SC)sc3c2)cc1,-13
N#CCCN(Cc1ccccc1)C(=S)Nc1ccccc1,8
COc1ccc(N2C(=O)CSC(c3ccccc3)C2=O)cc1 (centres undefined),15
CC(=O)Nc1ccc2c(c1)OCCOCCOc1cc(NC(C)=O)ccc1OCCO2,14
CCOc1ccc(C=Nc2cccc3ncccc23)cc1,-8
COc1ccc(OC)c(C2C3=C(CC(C)(C)CC3=O)Nc3nnnn32)c1 (centres undefined),20
COc1ccc(CNc2oc(-c3cccc4ccccc34)nc2P(=O)(OC)OC)cc1,9
Cc1cc(C)nc(Nc2n[nH]c(C)n2)n1,6
Cc1cc(O)c(C(=O)Cc2csc(C)n2)c(O)c1,7
O=C(CCSCCC(=O)Nc1ccccc1F)Nc1ccccc1F,6
CCSc1nnc2ccc(-c3cccs3)nn12,10
Cc1ccc(OCCCCN2CCCCC2)c(Br)c1,-9
CCc1ccccc1NC1=NCC(=O)N1C1CCCC1,24

Shown with each value named: entries from further up.
COc1ccc(CNc2oc(-c3cccc4ccccc34)nc2P(=O)(OC)OC)cc1
- Calb biofilm kill = 9

CCOc1ccc(C=Nc2cccc3ncccc23)cc1
- Calb biofilm kill = -8

Cc1cc(C)nc(Nc2n[nH]c(C)n2)n1
- Calb biofilm kill = 6

Continued.
molecule,Calb biofilm kill
Cc1cc(Cl)c(OCCCCNC(C)(C)C)c(Br)c1,15
O=C(Cc1csc(N2CCOCC2)n1)N/N=C/c1ccccc1C(=O)O,12
CC(C)COP(=O)(OCC(C)C)C(O)c1ccc(N(C)C)cc1 (centres undefined),8
Cc1ccc(NC(=S)NNC(C)(C)C)cc1,9
CC(C)c1ccc(/C=N/NC(=O)c2c(Cl)cnn2C)cc1,8
OC(CNCCC(c1ccccc1)c1ccccc1)COc1ccccc1 (centres undefined),5
O=C(Nc1nc(-c2ccco2)c(-c2ccco2)s1)C1CCC1,18
Cc1cc(NC(=O)CSc2nnc(-c3c[nH]c4ccccc34)n2-c2ccc(F)cc2)no1,16
CCc1cccc(NC(=S)N2CCC(c3ccccc3)C2)c1 (centres undefined),8
Cc1cc(-c2nc(C)c(C(=O)NNS(=O)(=O)c3ccccc3)s2)no1,18
Cc1noc(C)c1C(=O)N1CCCC(C(=O)c2ccc(Cl)cc2)C1 (centres undefined),10
CC1Cc2ccccc2N1CC(=O)Nc1ccc(N2CCOCC2)cc1 (centres undefined),12
O=C(CNc1ccc(F)cc1F)NC(=O)NCc1ccco1,20
O=C(c1sc2cc(F)ccc2c1Cl)N1CCN(c2ccccc2)CC1,14
CCOC(=O)C1CCCN(Cc2nc(Cc3ccccc3Cl)no2)C1 (centres undefined),17

These rows are one share of the data; rates above refer to the full screens.
